HCMV UL50-53 inh = inhibitors of HCMV UL50-UL53 nuclear egress complex interaction. AID 1918969. hit rate 0.15% among 190,000. HTRF UL50-UL53 interaction, normalized percent inhibition. inhibition, % (no concentration beside the values);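 active = both replicates at 50% or more, plus weaker picks with an unusually low signal ratio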;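 note: stock transfer was 100 nL into about 20 µL; 0% = negative control wells and 100% = wells with untagged competitor protein; inactives centre near -12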
Sa growth inh = inhibitors of Staphylococcus aureus growth at 42 °C. S. aureus RN4220 growth, OD600, 20 h; stronger effect = lower value. AID 720641. relative growth, % (test concentration not listed). hit rate 0.53% among 170,000;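 active = growth at 42 °C up to 50% and 20 or more points under that at 30 °C, or under 10% at both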;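 note: 300 nL library stock went into each well; scaled to the means of positive and negative controls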
GIV Gai3 FP = blocks GIV peptide binding to rat Galpha-i3; P08753; Galpha-i3/FITC-GIV peptide fluorescence polarization, 90 min; stronger effect = lower value; scaled: aluminum fluoride 0%, vehicle 100%; percent of control (FP), % (no concentration beside the values); hit rate 0.42% among 210,000; AID 1224905;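 active = replicate mean at 85% of control or lower, very high polarization wells dropped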;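 note: wells of about 15 µL received 100 nL stock; the first replicate is given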
Target sequence (P08753 whole entry, looked up): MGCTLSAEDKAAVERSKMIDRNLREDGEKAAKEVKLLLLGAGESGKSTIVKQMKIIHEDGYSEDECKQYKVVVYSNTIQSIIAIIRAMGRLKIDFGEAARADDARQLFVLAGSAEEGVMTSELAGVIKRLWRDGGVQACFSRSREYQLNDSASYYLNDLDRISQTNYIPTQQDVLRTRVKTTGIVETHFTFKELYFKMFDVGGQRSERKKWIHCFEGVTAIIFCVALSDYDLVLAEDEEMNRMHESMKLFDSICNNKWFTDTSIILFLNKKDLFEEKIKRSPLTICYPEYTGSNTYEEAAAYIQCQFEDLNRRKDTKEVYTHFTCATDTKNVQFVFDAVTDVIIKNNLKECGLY
Sa growth inh second temp = recorded beside Sa growth inh, whose call it bears; relative growth, %; measured here: growth at 30 °C;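 optical density after 20 h as mean of two plates; 100% = untreated growth and lower means inhibition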
The depositor's hits bear a star; . = not tested or not shown; & = joins results of further samples. This is a random part of the collection. About 0.82% of those tested had a hit in this group.

SMILES	HCMV UL50-53 inh	Sa growth inh	Sa growth inh second temp	GIV Gai3 FP
Cc1ccc(C)c(N2CCN(C(=O)c3cc4cc5ccc(C)cc5nc4o3)CC2)c1	-17	105	91	104
CCn1c(C(C)O)nc2ccccc21 (stereo not drawn)	0	86	89	107
CCCCNC(=O)C1CCC(=O)N(c2ccc(OC)cc2)C1c1ccc(OC)cc1 (stereo not drawn)	-26	96	86	100
COc1ccc(Cl)cc1NC(=O)C(C)N1Cc2ccccc2C1=O (stereo not drawn)	.	106	80	105
CCc1cc2c(=O)c(-c3nc4ccccc4[nH]3)c(C)oc2cc1OC(C)=O	0	95	91	111
Cc1[nH]c2ccccc2c1SCc1nnc(SCC(=O)Nc2ccccc2)n1C	-8	108	85	105
COC(=O)C1=C(N)N(c2cccc(C(F)(F)F)c2)C2=C(C(=O)CCC2)C1c1ccccc1 (stereo not drawn)	-8	91	85	.
O=C(COC(=O)C1CCC(=O)N1)Nc1nc(-c2ccccc2)cs1 (stereo not drawn)	-10	97	101	.
COc1ccc(CCNC(=O)CCc2c(C)c3ccc(O)c(C)c3oc2=O)cc1	0	104	93	102
COc1ccc(OC)c(C2CC(c3ccc(OC)c(OC)c3)=NN2C(=O)c2ccc(Br)o2)c1 (stereo not drawn)	-19	.	.	102
Cc1cc(C)cc(NC(=O)CN(C)S(=O)(=O)c2ccc3c(c2)CCC(=O)N3)c1	-11	106	91	100
CC(N)c1nc(-c2ccccc2Cl)no1 (stereo not drawn)	-28	95	88	101

Single values from above.
O=C(COC(=O)C1CCC(=O)N1)Nc1nc(-c2ccccc2)cs1 (stereo not drawn) | HCMV UL50-53 inh = -10
COc1ccc(Cl)cc1NC(=O)C(C)N1Cc2ccccc2C1=O (stereo not drawn) | Sa growth inh second temp = 80

(continued)
SMILES	HCMV UL50-53 inh	Sa growth inh	Sa growth inh second temp	GIV Gai3 FP
Cc1ccc(C(=O)c2coc3ccc(O)c(CN4CCN(C)CC4)c23)cc1	-22	65	63	97
O=S(=O)(c1ccccc1)n1ccc2cccnc21	-19	.	.	106
COC(=O)c1ccccc1NC(=O)c1cc2cc(C)ccc2n1C	4	89	86	108
COc1ccc(-c2csc(=Nc3ccccc3)n2CCCN(C)C)cc1	.	101	73	100
Cc1ccc2c(=O)cc(C(=O)Nc3sc4c(c3C(=O)NCc3ccco3)CCCC4)oc2c1C	-22	102	89	103
COc1ccc(-c2cc(-c3ccccc3)nc(SCC(C)=O)c2C#N)cc1	2	.	.	108
NS(=O)(=O)c1ccc(CNC(=O)c2ccco2)cc1	-13	95	89	109
O=C(Nc1ccc(Cl)c(C(F)(F)F)c1)C(Cc1ccccc1)NS(=O)(=O)c1ccc(Br)s1 (stereo not drawn)	-17	106	95	98
CCC(C)C(C(=O)Nc1ccc(F)cc1)N1Cc2ccccc2C1=O (stereo not drawn)	-1	90	73	105
CCC(=O)N1CCc2cc(CNS(=O)(=O)c3cc(Cl)ccc3OC)ccc21	.	93	84	102
Cc1ccc(C(=O)Nc2ccccc2C(=O)NCc2ccco2)cc1	-19	96	92	.
CCCN(CCC)C(=O)CSc1nc(-c2ccccc2)nc2cc(=O)[nH]n12	-24	.	.	95
O=C(COc1ccccc1F)Nc1c(C(=O)Nc2cccc(F)c2)oc2ccccc12	-3	109	89	104
COc1ccc(NS(=O)(=O)c2ccc(NC(=O)c3ccc(Br)o3)cc2)cc1	3	103	99	107
Cc1cc(SCC(=O)c2cc(C)n(C)c2C)n2c(nc3ccccc32)c1C#N	-38	99	96	.
O=C(CS(=O)(=O)c1ccccc1)NCc1ccccc1	-30	82	102	105
CN(C(=O)NC(=O)Nc1ccc(C=C(C#N)C#N)cc1)S(C)(=O)=O	-38	97	96	.
O=c1c2ccccc2c(/C=N/c2ccccn2)c(O)n1-c1ccccc1	-41&-6	108&95	76&86	.
c1ccc(Cn2cc3c(-c4ccccc4)nnc-3c3ccccc32)cc1	-60	92	88	110&104
O=c1oc2c3c(ccc2c2ccccc12)OCN(Cc1ccccc1Cl)C3	-18	105	83	97
CCOc1ccccc1NC(=O)CSc1cc(=O)n(CC)c2ccccc12	8	81	50	104
Fc1ccc(NCc2nnc3n2CCCCC3)cc1Cl	.	83	88	99
COC(=O)c1cc(COC(=O)COc2ccc(C)c(C)c2)oc1C	-12	104	93	.
Cn1nccc1C(=O)OCC(=O)c1ccccc1	17	80	86	101
COc1ccc(NC(=O)c2cn3c4c(ccc(Cl)c4c2=O)OC(C)C3)cc1OC (stereo not drawn)	.	94	87	116
CC1CN(S(=O)(=O)c2ccc3c(c2)NCCS3)c2ccccc2O1 (stereo not drawn)	-18	.	.	105
Cc1ccc(C)c(Cn2c(=O)n(-c3ccc(Cl)cc3)c(=O)c3c(C)c(C)sc32)c1	-22	103	92	102
O=S(=O)(NCCc1csc2nc(-c3ccccc3)nn12)c1ccc(Cl)s1	.	121	88	94
C1CN(c2nc3nonc3nc2N2CCOCC2)CCO1	-23	69	63	102
CCOC(=O)N1CCc2c(sc3c2c(=O)n(Cc2ccccc2)c(=O)n3CC(=O)Nc2cccc(OC)c2)C1	0	110	92	103
Cc1ccc(CNC(=O)c2cc(S(=O)(=O)N3CCCCCC3)cn2C)cc1	.	88	91	104
O=C(Cn1cc2c(n1)CCCC2)Nc1ccc(Cl)cc1	4	84	81	100
COCCn1c(SCC(=O)c2ccccc2)nnc1-c1ccccc1	-2	100	92	103
COc1cccc(-c2csc(-c3nnn(-c4cccc(OC)c4)c3N)n2)c1	15	.	.	118
Cc1cccc2cc(CN(Cc3ccco3)C(=O)N3CCOCC3)c(Cl)nc12	-31	121	90	104
Cn1cc(CCC(=O)O)c2ccccc21	0	97	84	101
Cc1ccc(NS(=O)(=O)c2cccc(C(=O)NC(C)(C)C)c2)c(C)c1	-31	91	83	.
COc1ccc(OCC(=O)c2c(O)c3ccccc3oc2=O)cc1	.	71	55	96
O=C(O)CC(NC(=O)C(c1ccccc1)c1ccccc1)c1ccc(F)cc1 (stereo not drawn)	.	106	89	103
CCOC(=O)C1CCCN(C(=O)Cn2ncc3c(C)n(Cc4ccc(Cl)cc4)c(C)c3c2=O)C1 (stereo not drawn)	-6	105	91	102
COc1ccc2c(c1)NC(c1ccc(F)cc1)=NC(c1ccc(F)cc1)=N2	17	88	91	104
Cc1[nH]c(C(=O)NCc2ccccc2Cl)c(C)c1S(=O)(=O)N1CCCC1	5	.	.	106
COc1ccc(-c2cc(C(F)(F)F)n3nc(C(=O)Nc4ccc(C(C)=O)cc4)cc3n2)cc1	1	.	.	104
CC(=O)N1CCCc2cc(S(=O)(=O)N3CCCC(C(=O)NCc4ccc(C)cc4)C3)ccc21 (stereo not drawn)	.	107	88	98
Nc1ccc(CNc2ncn[nH]2)cc1	-12	103	72	105
CCOC(=O)c1c(Nc2nc(C)cs2)sc2c1CCCC2	8	83	91	.
COC(Cn1c(SCC(=O)c2cccc(C(F)(F)F)c2)nnc1-c1ccc(Cl)cc1)OC	-35	85	69	103
COc1cccc(NC(=O)c2c(N)c(C(=O)c3ccc(F)cc3)n3ccccc23)c1	0	.	.	100
CS(=O)(=O)N1N=C(c2ccc(Br)cc2)CC1c1nc2ccccc2[nH]1 (stereo not drawn)	2	73	39	118
Cc1cc(C)n2nc(C(=O)N3CCCSC3=Nc3ccccc3)nc2n1	-10	94	97	.
CCC(C(=O)OC)n1cnc2c(nnn2Cc2ccc(Cl)cc2)c1=O (stereo not drawn)	4	107	76	101
COc1ccc(CCNC(=O)CCCCn2c(=O)c3ccccc3n(Cc3ccccc3)c2=O)cc1OC	-1	111	97	104
COc1ccc(CCn2c(NN)nc3ccsc3c2=O)cc1OC	.	92	86	102
CCCCCC(=O)Nc1ccc(N2CCN(c3ccc(C(F)(F)F)cn3)CC2)nc1	-39	91	81	102
Cc1ccc(CN(C)CC(=O)NCCc2ccc(S(N)(=O)=O)cc2)cc1	-7	110	92	.
O=C(OC1CCCCC1=O)c1cc2ccccc2[nH]1 (stereo not drawn)	-36	112	80	.
O=C(C1CC(c2ccccc2F)=NO1)N1CCCCC1 (stereo not drawn)	-23	.	.	97
O=C(NCC(c1ccc(Cl)cc1)N1CCCCC1)c1ccccc1F (stereo not drawn)	-2	108	87	104
CCC(=O)N1C(C(=O)N2CCCC2)CSC1c1ccc(OC)cc1 (stereo not drawn)	2	88	87	104
Cc1cc(C)n(C(=O)CCC(=O)O)n1	.	109	87	99
Other records.
SMILES	HCMV UL50-53 inh	Sa growth inh	Sa growth inh second temp	GIV Gai3 FP
Cc1cc(C)cc(NC(=O)COCc2cc(-c3ccc4c(c3)OCO4)on2)c1	.	114	72	110
Cc1c(C(=O)NCc2cccc(Cl)c2)oc2ccc3c(c12)C(=O)CC(C)(C)O3	.	116	94	107
COc1ccc2oc(=O)c(S(=O)(=O)c3ccccc3)cc2c1	12	100	99	107
O=S(=O)(c1ccc(NCc2ccc3c(c2)OCO3)nc1)N1CCCC1	7	134	103	.
O=C1CC(/C=C/c2ccccc2)Cc2nc(N3CCN(Cc4ccc5c(c4)OCO5)CC3)ncc21 (stereo not drawn)	-19	.	.	98
CCCC(CCC)C(=O)Nc1cc(-c2cn3cccnc3n2)ccc1C	.	96	93	105
Cc1ccccc1C(=O)NC(NCc1ccco1)(C(F)(F)F)C(F)(F)F	-16	98	79	109
CC(NC(=O)CCc1nc2ccccc2s1)C1CC2CCC1C2 (stereo not drawn)	6	89	100	.
Cc1ccc(N2C(=O)CCS2(=O)=O)cc1S(=O)(=O)NCC1CCCO1 (stereo not drawn)	-3	.	.	101

Structures above with a furan ring, fused or not:
SMILES	HCMV UL50-53 inh	Sa growth inh	Sa growth inh second temp	GIV Gai3 FP
Cc1ccc(C)c(N2CCN(C(=O)c3cc4cc5ccc(C)cc5nc4o3)CC2)c1	-17	105	91	104
COc1ccc(OC)c(C2CC(c3ccc(OC)c(OC)c3)=NN2C(=O)c2ccc(Br)o2)c1 (stereo not drawn)	-19	.	.	102
Cc1ccc(C(=O)c2coc3ccc(O)c(CN4CCN(C)CC4)c23)cc1	-22	65	63	97
Cc1ccc2c(=O)cc(C(=O)Nc3sc4c(c3C(=O)NCc3ccco3)CCCC4)oc2c1C	-22	102	89	103
NS(=O)(=O)c1ccc(CNC(=O)c2ccco2)cc1	-13	95	89	109
Cc1ccc(C(=O)Nc2ccccc2C(=O)NCc2ccco2)cc1	-19	96	92	.
O=C(COc1ccccc1F)Nc1c(C(=O)Nc2cccc(F)c2)oc2ccccc12	-3	109	89	104
COc1ccc(NS(=O)(=O)c2ccc(NC(=O)c3ccc(Br)o3)cc2)cc1	3	103	99	107
COC(=O)c1cc(COC(=O)COc2ccc(C)c(C)c2)oc1C	-12	104	93	.
Cc1cccc2cc(CN(Cc3ccco3)C(=O)N3CCOCC3)c(Cl)nc12	-31	121	90	104
Cc1c(C(=O)NCc2cccc(Cl)c2)oc2ccc3c(c12)C(=O)CC(C)(C)O3	.	116	94	107
Cc1ccccc1C(=O)NC(NCc1ccco1)(C(F)(F)F)C(F)(F)F	-16	98	79	109

Source: PubChem
